# High-throughput results deposited in PubChem BioAssay by ICCB-Longwood Screening Facility, Harvard Medical School.
# MgrA-DNA mod: S. aureus MgrA activity modulators, primary screen, biochemical, S. aureus Newman, fluorescence polarization | hit rate 0.13% among 84,000 | AID 602314, 2012 | inhibition, %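 (about 10 µg/mL by stock and volumes)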 | MgrA-DNA binding;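 active = above 50% in either of two replicates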;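 also: 0% = protein plus DNA without compound and 100% = DNA alone without protein; higher means less MgrA bound to DNA so lower polarization; one replicate is shown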
# S aureus helic: inhibitors of S. aureus replicative helicase, primary screen, biochemical, fluorescence unwinding readout | purified S. aureus helicase, fluorescence unwinding assay; about half of the hits fall short of the stated cut | inhibition, %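 (tested at about 80 µM)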 | AID 485395, 2010 | hit rate 0.05% among 120,000;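 active = both duplicates at 50% or more, or one of them with a favoured structure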;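 also: 0% = mean of negative control wells and 100% = mean of positive control wells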
# Active calls of the source: *; . = no result given. Only part of the results is shown (hit frequency here may not be typical).
SMILES,MgrA-DNA mod,S aureus helic
COC(=O)c1cc(=O)c2cc(NC(=O)c3ccc(OC(F)(F)F)cc3)ccc2[nH]1,-1.6,.
CCc1nnc(NC(=O)c2nc(-c3ccc(Cl)cc3)n3c2CCCCC3)s1,-1.9,-1.0
COc1ccc(S(=O)(=O)N2CCCC(C(=O)NC(C)C)C2)cc1OC (centres undefined),-2.7,1.0
O=C(O)CCC(=O)c1ccc(Cl)cc1,-1.5,.
CC(Cc1c[nH]c2ccccc12)NC(N)=O (centres undefined),0.6,-2.0
Cc1ccc(C)c(OCCn2cc(/C=C3\C(=N)N4N=C(S(C)(=O)=O)SC4=NC3=O)c3ccccc32)c1,.,-17.0
C(=Nc1ccc2c(c1)OCO2)c1cccs1,0.3,.
C=CCN(Cc1cccs1)C(=O)Cn1c(=O)cnc2ccccc21,.,3.0
N#Cc1ccsc1NC(=O)COC(=O)/C=C/c1cn(Cc2ccccc2)nc1-c1cccs1,.,-28.0
CN1C(=O)SC(Cc2ccc(C#N)cc2)C1=O (centres undefined),1.1,.
CC(C)C(NS(=O)(=O)c1ccc2c(c1)Cc1cc(S(=O)(=O)NC(C(=O)O)C(C)C)ccc1-2)C(=O)O (centres undefined),.,0.0
CCOC(=O)Cn1cc(C#N)c(=O)[nH]c1=O,1.4,.
COc1ccc(/C=C2\C(=O)N(c3ccc(Cl)cc3)C(c3ccc(F)cc3)S2(=O)=O)c(OC)c1 (centres undefined),-5.4,10.0
CC1(C)CC(NC(=O)N2c3ccccc3CCc3ccccc32)CC(C)(C)N1,-1.1,5.0
CCOC(=O)C1=C(Cn2ccc(C(F)(F)F)n2)NC(=O)NC1c1cc(C)ccc1C (centres undefined),.,9.0
Cc1nc(C(F)(F)F)nc(NNC(=O)Nc2ccccc2)c1C,.,-15.0
Cc1csc(NC(=O)CSc2nc(C34CC5CC(CC(C5)C3)C4)ccc2C#N)n1,-2.2,18.0
O=C(/C=C/NCc1ccccc1)c1cccs1,-9.3,8.0
COc1ccc(Cl)cc1N=Cc1sccc1C,-2.2,-6.0
Cc1nn(-c2ccccc2)nc1-c1nnc(-c2ccc(Cl)c(Cl)c2)o1,0.2,.
O=C(c1ccccc1)C(C(=O)c1ccccc1)C(=O)c1ccccc1,.,14.0
COc1ccc(C(=O)Nc2sc3c(c2C(=O)NCC2CCCO2)CCCC3)cc1 (centres undefined),.,-21.0
Cc1nc(N)sc1Cc1ccc(O)cc1,.,5.0
Cn1c(Sc2nc3ccc(Cl)cc3s2)nnc1-c1cccs1,-1.5,.
Cc1ccc(S(=O)(=O)N2CCC(C(=O)N/N=C/c3ccccn3)CC2)cc1,.,4.0
CC(=O)N/C(=C/c1ccc2c(c1)OCO2)C(=O)O,-3.8,.
Cc1c(CO)[nH]c2ccc(Cl)cc12,-1.1,8.0
Cc1ccccc1C(=O)N/N=C1/SCC(=O)N1Cc1ccc2c(c1)OCO2,4.9,-5.0
CC(=O)Nc1cccc(C(C(F)(F)F)C(F)(F)F)c1,.,-22.0
NC(=O)COC(=O)C(c1ccccc1)c1ccccc1,.,5.0
N#CCC(=O)Nc1ccc(F)cc1,-0.2,.
Cc1nc(CCNC(=O)CC2CCCCC2)cs1,.,-22.0
O=C(Oc1ccc(Cl)cc1)c1csc(C2COc3ccccc3O2)n1 (centres undefined),-2.8,.
COc1ccc(-n2nnnc2SCc2cc(=O)oc3cc(O)ccc23)cc1,.,-6.0
Cc1ccc(/C=C/C2=CC(=C(C#N)C#N)CC(C)(C)C2)o1,.,-225.0
O=S(=O)(c1ccccc1)c1nc(-c2ccccc2Cl)oc1Nc1ccc(N2CCOCC2)cc1,.,18.0
CN1CCN(C(=O)CN2C(=O)S/C(=C\c3ccc(Br)cc3)C2=O)CC1,4.0,.
O=C(COc1ccc(/C=N/NC(=O)CSc2ncccn2)cc1)NCC1CCCO1 (centres undefined),.,4.0
CSc1ccccc1N1C(=O)C2CC=CCC2C1=O (centres undefined),0.0,5.0
Cc1ccc(N(O)S(=O)(=O)c2ccc(C)cc2)cc1,.,-8.0
CCN(CC)S(=O)(=O)c1cccc(C(=O)OCC(=O)c2ccc3c(c2)OCO3)c1,.,2.0
Fc1cccc2c1N[C@@H](c1ccccn1)[C@H]1CC=C[C@@H]21,.,-24.0
Cc1ccc(Cn2c(=O)c3ccccc3n3c(SCc4cc(=O)n5ccsc5n4)nnc23)cc1,.,-7.0
Cc1ccc(C)c(NC(=S)N2CCC(c3nc4ccccc4o3)CC2)c1,2.5,2.0
NC1=NC2C(N=C(Br)N2C2O[C@H]3COP(=O)(O)O[C@@H]3[C@@H]2O)C(=O)N1 (some centres undefined),-0.8,.
COC(C)(C)CCCC(C)C/C=C/C(C)=C/C(=O)O (centres undefined),0.0,.
O=C(CN1C(=O)c2ccccc2S1(=O)=O)NC12CC3CC(CC(C3)C1)C2,.,18.0
O=C(Nc1ccccc1)OC1CN(C(c2ccccc2)c2ccccc2)C1,-1.5,.
CCCCc1c(C)c(C#N)c2nc3ccccc3n2c1NCCN1CCOCC1,2.1,2.0
CC1=C(C(=O)Nc2ccc(Cl)cc2C(=O)N2CCCCCC2)SCCO1,1.5,-6.0

# Further compounds follow.
SMILES,MgrA-DNA mod,S aureus helic
N#Cc1c(NC(=O)/C=C/C(=O)O)sc2c1CCC2,-0.6,11.0
O=C(CO)Nc1ccccc1Sc1ccccc1,.,-4.0
Cc1ccc(Nc2nc(N3CC(C)OC(C)C3)nc3c2cnn3C)cc1Cl (centres undefined),0.4,-3.0
CCOC(=O)C1CCCN(CCP(=O)(c2ccccc2)c2ccccc2)C1 (centres undefined),0.2,12.0
COc1ccc(CCN2C(=O)C3C4C=CC(C4)C3C2=O)cc1OC (centres undefined),0.1,.
Nc1ccccc1SC/C=C/c1ccccc1,0.0,.
CCOc1ccc(Nc2cc(C(=O)NCc3ccco3)c3ccccc3n2)cc1,.,-12.0
CC1CC(C)CN(C(=O)CSc2nc3cc4c(cc3c(=O)n2CCC2=CCCCC2)OCO4)C1 (centres undefined),.,0.0
CCN1C(=O)c2cccc3c(NC(=O)c4ccc(S(=O)(=O)N5CCCCC5C)cc4)ccc1c23 (centres undefined),7.6,3.0
COc1cc(CC(=O)Oc2ccc(-c3nnco3)cc2)cc(OC)c1OC,.,-8.0
c1csc(CSc2nc3ccccc3s2)c1,.,-4.0
Cc1ccc(-c2nn(C)c(=O)c3ccccc23)cc1S(=O)(=O)N1CCOCC1,2.5,10.0
Cn1nccc1N1C(=O)C2=C(SCCS2)C1=O,0.3,.
CC(Nc1nc(N2CCOCC2)nc2ccccc12)c1ccccc1 (centres undefined),0.6,-2.0
CC1OC(=O)N(c2cc(Cl)cc(Cl)c2)C1=O (centres undefined),0.7,.
Cc1cccc(C(=O)Oc2ccc(C#N)cc2)c1,2.0,-3.0
Cc1nn(C2CCS(=O)(=O)C2)c(Cl)c1CNCC1CN(CC(C)C)CCO1 (centres undefined),.,-4.0
CCc1ccc(/C=C(\C#N)S(=O)(=O)c2ccccc2)s1,1.4,-13.0
CSc1nnc(SCc2cc(=O)oc3cc(O)ccc23)s1,-1.4,.
O=C(O)c1ccccc1-c1ncc(-c2ccccc2)o1,3.3,-4.0
CC1CN(C(=O)C(C)N2CCc3ccccc32)CC(C)O1 (centres undefined),.,-9.0
CC(C)(C)NC(=O)c1cccc(NC(=O)CCC(=O)O)c1,0.3,-1.0
CC1CN(CC2COC(C)(C)O2)CC(C)O1 (centres undefined),-0.4,18.0
O=C(O)Cn1nnnc1SCC(=O)Nc1ccccc1F,-0.6,13.0
Cc1cc(-c2csc(=S)n2Nc2ccccc2)ccc1Cl,-1.4,.
Cc1onc(-c2ccccc2)c1C(=O)OCC(=O)Nc1ccccc1,.,3.0
Cc1ccc(C)c(NC(=O)c2ccccc2)c1,3.8,-1.0
CSC(=NCc1c(Cl)cccc1Oc1ccccc1)NC#N,0.4,.
COC(CNC(=O)c1ccc(CS(=O)(=O)Cc2ccccc2F)o1)OC,.,6.0
Cc1ccc(N(C(=O)c2ccccc2)C2CS(=O)(=O)CC2OC(=O)c2ccccc2)cc1 (centres undefined),1.9,3.0

# Four entries from above, ordered by SMILES length, smallest number first:
SMILES,MgrA-DNA mod,S aureus helic
CC1CN(CC2COC(C)(C)O2)CC(C)O1 (centres undefined),-0.4,18.0
Cc1cc(-c2csc(=S)n2Nc2ccccc2)ccc1Cl,-1.4,.
Cc1onc(-c2ccccc2)c1C(=O)OCC(=O)Nc1ccccc1,.,3.0
COC(CNC(=O)c1ccc(CS(=O)(=O)Cc2ccccc2F)o1)OC,.,6.0

# (further entries)
SMILES,MgrA-DNA mod,S aureus helic
COC(=O)C1Cc2ccccc2CN1C(=O)CSc1nnc(-c2cc3c(s2)CCC(C)C3)o1 (centres undefined),.,12.0
COC(Cn1c(SC)nnc1-c1ccc(Cl)cc1)OC,-0.7,.
Clc1cccc(C2C3CC=CC3c3c4c(cc5ccccc35)C3C=CCC3CN42)c1Cl (centres undefined),3.2,.
COc1ccc2cc(CN(CC(N)=O)C(C)C)c(Cl)nc2c1,.,-4.0
CCNCC(=O)NCc1ccc(Cl)cc1,.,-10.0
CCN1CCCC1CNS(=O)(=O)c1cc(C(=O)OC)n(C)c1 (centres undefined),.,2.0
O=C(NNc1ccccc1)Nc1ccc2snnc2c1,.,8.0
Cc1ccc(C(=O)OCC(=O)N2CC3(C)CC2CC(C)(C)C3)cc1NC(=O)c1ccco1 (centres undefined),.,-8.0
O=C(O)c1cccc(NC(=O)c2cc3ccccc3o2)c1,-4.3,8.0
CCCc1cc(-n2nnc3ccccc32)n2c(nc3ccccc32)c1C#N,.,-8.0
O=C1C(=Cc2ccccc2)C(=O)c2ccccc21,.,15.0
CCC(CC)C(=O)NCc1ccc2[nH]c(C)cc2c1,.,16.0
Cc1cc(C)cc(NC(=O)C(C)Sc2ccccc2)c1 (centres undefined),-0.2,13.0
C(=N\C(/N=C/c1cccs1)c1cccs1)/c1cccs1,2.5,17.0
c1ccc(Cc2nnc3n2CCCCC3)cc1,.,10.0
Cc1cccc(-n2c(CC#N)n[nH]c2=S)c1,2.3,.
CC(C)(C)NS(=O)(=O)c1ccc2nc(-c3ccccc3)[nH]c2c1,-0.2,7.0
COc1cc(-c2nnc(SC(=O)OCc3ccccc3)o2)cc(OC)c1OC,.,5.0
COc1ccccc1N1CCN(C(=O)CN(c2ccccc2OC)S(C)(=O)=O)CC1,0.3,5.0
CCN(CC(=O)NC1CCS(=O)(=O)C1)Cn1nc2c(Cl)cc(Cl)cn2c1=S (centres undefined),.,-6.0

# Brought forward from above: 5 compounds, followed by the next part.
SMILES,MgrA-DNA mod,S aureus helic
Cc1cccc(-n2c(CC#N)n[nH]c2=S)c1,2.3,.
CC(C)(C)NS(=O)(=O)c1ccc2nc(-c3ccccc3)[nH]c2c1,-0.2,7.0
COc1cc(-c2nnc(SC(=O)OCc3ccccc3)o2)cc(OC)c1OC,.,5.0
COc1ccccc1N1CCN(C(=O)CN(c2ccccc2OC)S(C)(=O)=O)CC1,0.3,5.0
CCN(CC(=O)NC1CCS(=O)(=O)C1)Cn1nc2c(Cl)cc(Cl)cn2c1=S (centres undefined),.,-6.0
Cc1nn(C)c2oc(=O)cc(-c3ccccc3)c12,0.2,.
CC(C)(C)Nc1nc2c(s1)CCCC2,.,17.0
CC1=CC(=O)C(CCCC2=CC(=O)C=CC2=O)=CC1=O,.,26.0
N#C/C(=C(\O)Cc1ccccc1)c1nc2ccccc2[nH]1,-0.8,-5.0
C/C(=N\NC(=O)Cc1ccccc1)C(c1ccccc1)N1CCOCC1 (centres undefined),.,-11.0
COC(=O)C1=C(C)NC2=C(C(=O)CCC2)C1c1ccccc1 (centres undefined),4.8,5.0
Cc1ccc(C(=O)c2coc3ccc(O)c(Cl)c23)cc1,3.2,-12.0
COc1cc(C(=O)NCCC(=O)NC2CCC(C)CC2)cc(OC)c1OC (centres undefined),0.7,6.0
CC(=O)Nc1ccc(C(=S)N2CCN(c3ccccc3O)CC2)cc1,.,18.0
Cc1ccc(C)n1-c1ncc(Br)cn1,0.2,.
CCCC(C)C(=O)Nc1ccc(NC(C)=O)cc1 (centres undefined),0.5,2.0
CCOc1cc(C(=O)N(CC(F)(F)F)C(C)C2CC2)ccc1OC (centres undefined),.,1.0
CCC(C)NC(=O)c1ccc2c(c1)CCN2S(=O)(=O)c1ccccc1 (centres undefined),.,7.0
COc1nc(C)cc(C)c1C(=O)O,-2.2,.
O=C(NCc1ccc(Cl)cc1)c1ccc(CSc2nc3ccncc3[nH]2)cc1,1.4,13.0
O=c1[nH]nc(SCc2nnc(-c3cccc(Cl)c3)o2)n1C1CCCCC1,.,-25.0
CCC(=O)Nc1ccc(N2CCCCS2(=O)=O)cc1,.,9.0
Cc1cc(C(=O)C(C)Sc2nnc(-c3ccc4c(c3)OCO4)o2)c(C)n1-c1ccc(OC(F)F)cc1 (centres undefined),.,1.0
CC(C)c1ccc(NC(=O)COc2ccccn2)cc1,-2.5,9.0
CC(C)NCC1CCc2cc(CO)c([N+](=O)[O-])cc2N1 (centres undefined),-1.0,.
CC(=O)Oc1ccc(OC(C)=O)c2cc3c(OC(C)=O)ccc(OC(C)=O)c3cc12,-0.9,.
C/C(=C\C(=O)c1ccccc1)Nc1ccc2c(c1)OCO2,2.5,21.0
CCCC(C)NC(=O)c1ccccc1 (centres undefined),.,12.0
